Assay outcomes from PubChem BioAssay.
CtBP-E1A blk: inhibitors of CtBP/E1A interaction; AlphaScreen GST-E1A/His-CtBP binding, 1536-well; stronger effect = lower value; control for the full effect not named in the record; activity change, % (test concentration not listed); actives 0.49% (n = 340,000); AID 651724; in the data active means activity change below about -65%; inconclusive means about -30% to -65%; inactive means above about -30%; further: on the % scale 0 is the no-effect control and ±100 the full control effect; compound concentration not given in the record
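In 5 uL wells, 23 nL compound meets equimolar GST-E1A and His-CtBP (5X stock 125 nM each) for 2 h, 37 °C. Beads (5X, 50 ug/mL) then 1 h, 37 °C, dark.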
PINK1 expr mod: modulators of PINK1 expression; PINK1 immunofluorescence, high-content cytometry, 24 h; Potency, µM (titrated, usually from 76.6 µM), for the others: top-dose activation (PINK1 increase), hits mostly activators; actives 0.2% (n = 410,000); AID 624263; active = well fitted activation curve with a large enough effect; inconclusive = small, poorly fitted or top-dose-only effect; inactive = flat fitted curve, though single readings scatter; cell line not stated here;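 further: potency means the concentration at half of the fitted maximal effect; % of control where 0% means no effect; nearly all actives have a fitted effect of over 65% in size; a mitochondrial uncoupler was the plate control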
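A stable cell line was treated with compounds at 5 concentrations for 24 hours, with CCCP as control. PINK1 levels and mitochondrial localization were measured by immunofluorescence with mitochondrial, cell and nuclear markers after fixation, read by laser-scanning cytometry.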
Six1-Eya2 inh: inhibitors of human Six1/Eya2 interaction; activity change, % (no concentration beside the values); actives 0.56% (n = 360,000); AlphaScreen GST-Six1/His-Eya2 binding, biochemical; stronger effect = lower value; control for the full effect not named in the record; Q15475+O00167; in the data active = activity change below about -65%; inconclusive = about -30% to -65%; inactive = above about -30%; further: on the % scale 0 is the no-effect control and ±100 the full control effect; compound concentration not given in the record
Target sequence (O00167 whole entry, looked up): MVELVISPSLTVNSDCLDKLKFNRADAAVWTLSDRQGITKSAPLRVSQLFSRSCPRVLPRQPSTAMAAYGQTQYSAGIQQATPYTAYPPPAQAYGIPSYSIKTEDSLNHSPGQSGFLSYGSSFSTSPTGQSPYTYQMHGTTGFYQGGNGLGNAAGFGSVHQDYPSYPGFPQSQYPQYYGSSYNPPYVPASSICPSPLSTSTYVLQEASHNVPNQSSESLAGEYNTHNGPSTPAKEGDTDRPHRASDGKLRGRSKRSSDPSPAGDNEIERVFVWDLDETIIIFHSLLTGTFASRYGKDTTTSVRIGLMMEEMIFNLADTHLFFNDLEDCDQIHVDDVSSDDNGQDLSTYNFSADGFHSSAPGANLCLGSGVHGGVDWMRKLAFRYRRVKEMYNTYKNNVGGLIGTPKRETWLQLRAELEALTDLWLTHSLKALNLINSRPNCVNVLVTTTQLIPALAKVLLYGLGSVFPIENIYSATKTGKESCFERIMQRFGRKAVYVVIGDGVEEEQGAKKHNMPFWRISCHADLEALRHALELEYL
Target sequence (Q15475 whole entry, looked up): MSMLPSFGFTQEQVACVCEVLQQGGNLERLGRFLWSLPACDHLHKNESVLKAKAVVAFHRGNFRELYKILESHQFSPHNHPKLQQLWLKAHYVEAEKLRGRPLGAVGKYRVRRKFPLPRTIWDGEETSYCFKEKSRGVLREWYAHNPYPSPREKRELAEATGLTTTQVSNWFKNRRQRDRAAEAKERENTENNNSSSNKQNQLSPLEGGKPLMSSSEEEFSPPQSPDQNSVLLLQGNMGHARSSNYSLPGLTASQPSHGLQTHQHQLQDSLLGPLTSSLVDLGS
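AlphaScreen luminescence read after one hour at 37 °C in darkness. Pin-transferred compounds met GST-Six1 and His-Eya2 protein (5X stock 250 nM/500 nM) plus glutathione donor and Ni-chelate acceptor beads (5X, 50 ug/mL).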
TRPML1 ag: human mucolipin-1 channel agonism | Q9GZU1 | TRPML1-expressing cells, Ca2+ dye fluorescence, FDSS; host cell line not named in the record; reference of the full effect not given here | activation, % (no concentration beside the values) | actives 0.12% (n = 410,000) | AID 624414; in the data active = activation above about 50%; inconclusive = about 30% to 50%; inactive = below about 30%; further: 0% is about no effect; the text of the record puts the active cut at 80%
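TRPML1-DL cells, Tet-induced overnight (~16 h, 37 degrees C), loaded 45-90 min at room temperature with Ca8 no-wash calcium dye plus quencher. FDSS fluorescence: 10 s baseline, compound pin-transfer, 110 s agonist read, then EC80 54-4 (4uM final) and 110 s antagonist read.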
D2 ag: agonists of human D2 dopamine receptor (beta-arrestin); DiscoveRx PathHunter D2 beta-arrestin, luminescence, 90 min; 100% = 57 uM dopamine signal; P14416; actives 0.084% (n = 360,000); activation, % (concentration not given with the values); in the data active = activation above about 40%; inconclusive = about 15% to 40%; inactive = below about 15%; further: compound concentration not given in the record; the text of the record calls up to 30% inactive
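DiscoveRx PathHunter D2 beta-arrestin cells (2,100/well) attached overnight, then compound-stimulated 90 min at 37 C in HBSS/10 mM HEPES/0.1% Tween-20 buffer; beta-galactosidase complementation read by luminescence after 1 h at ambient temperature. Dopamine 57 uM final (EC100) as control.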
D2 PAM: positive allosteric modulators of human D2 dopamine receptor | P14416 | actives 0.23% (n = 360,000) | DiscoveRx D2 beta-arrestin cells, luminescence, 90 min; 100% = 57 uM dopamine signal | potentiation, % (no concentration beside the values); active = potentiation of 50% or more; inconclusive = 30% to 50%; inactive = 30% or less;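 further: compound concentration not given in the record; tested on top of an EC20 dose of dopamine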
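D2 cells co-treated with compound plus 50 nM dopamine (EC20) for 90 min at 37 deg C to detect potentiation. Beta-arrestin recruitment was read as enzyme-fragment luminescence after 1 h at ambient temperature. Full response was set by 57 uM dopamine.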
Active calls of the source: *; ? = inconclusive; nt = no result given; [ ] = remark or other dose.

SMILES	CtBP-E1A blk	PINK1 expr mod	Six1-Eya2 inh	TRPML1 ag	D2 ag	D2 PAM
COC(=O)CSc1nc2ccc(NC(=O)c3ccccc3C(=O)N3CCOCC3)cc2s1	-6	6.8%	1	0.7	-0.8	-10
O=C(C1CCCCN1S(=O)(=O)c1ccccc1)N1CCCCC1 (configuration not stated)	-1	-4.5%[38.3 µM]	0	-0.8	-0.9	-10
C=CCSC1=C(C#N)C(c2ccccc2)CC(=O)N1 (configuration not stated)	2	1.1%	10	1.3	-2.9	-6
Nc1ccc(N2CCN(c3ccccc3)CC2)c(F)c1	-12	-1.8%	-12	-0.2	-5.5	-7
NC(=O)CN1C(=O)C(=O)N(Cc2cccc(Cl)c2)C1=O	-5	0.0%	4	nt	-2.2	-3
NC(=S)Nc1ccc2cn[nH]c2c1	6	0.2%	-2	0.2	-4.6	-9
O=C(Nc1ccccc1)O/N=C(\c1ccccc1)c1ccccn1	?	?	?	-0.3	-2.3	-12
O=C(NC1CCCC1)C(c1ccc(Cl)cc1)N1CCOCC1 (configuration not stated)	2	1.0%	5	-1.1	-5.7	-6
Cc1nn(CC(=O)Nc2c(F)cc(F)cc2Br)c(=O)c2cccn12	11	0.0%	3	-0.5	-5.1	-3
CCOc1cc(CNc2ccc(S(N)(=O)=O)cc2)cc(Cl)c1OC	-1	0.2%	6	3.4	-0.3	-6
CC(=O)c1cc(F)c(N2CCCC2)cc1C	-2	7.2%	-10	0.7	1.4	10
O=C(NCc1csc(-c2cccs2)n1)Nc1ccc(C(F)(F)F)cc1	1	6.9%	-1	0.2	1.5	-6
CC(C)OCCCNC(=O)C1CC(=O)N(CCc2ccccc2)C1 (configuration not stated)	8	1.9%	-3	0.9	-0.4	1
CC(=C/c1ccco1)/C=N/NC(=O)c1ccncc1	0	3.2%	-2	-0.5	4.3	-3
Cc1ccccc1OCC(=O)N=Nc1c(O)n(C)c2ccccc12	-2	5.3%	-1	1.9	1.9	-3
Nc1nnc(CCS(=O)(=O)c2cc(Cl)ccc2Cl)s1	-1	2.3%	-1	-1.0	-0.2	15
COc1ccccc1C(=O)N(CCC1CCCN1C)c1nc2ccccc2s1 (configuration not stated)	-9	0.5%	-10	0.5	-0.2	-16
CNC(=O)COc1ccc(C=O)cc1OC	0	2.6%	6	1.0	0.5	3
Cc1cccc(S(=O)(=O)Nc2ccc(-c3cn4ccccc4n3)cc2)c1	4	0.0%	?	7.4	-0.4	23
O=C(COC(=O)c1cc(F)cc(F)c1)NCCCc1ccccc1	1	-0.2%	4	nt	-4.1	-8
CCCCCCCc1nc2c(=O)n(C)c3ccccc3c2o1	2	nt	6	-0.3	4.7	1
O=C(NC1CCCC1)C1CCCN(S(=O)(=O)c2cccc3cccnc23)C1 (configuration not stated)	-16	4.6%	7	0.5	-7.5	-3
CN(Cc1ccccc1)C(=O)COC(=O)c1cc2ccccc2oc1=O	2	1.4%	4	0.4	-1.8	-1
O=C(O)CCCC(=O)Nc1ccc(Sc2ccc([N+](=O)[O-])cc2)cc1	-2	-1.3%	0	0.6	1.3	12
CCOc1cc(NC(=O)C(C)C)c(OCC)cc1NC(=O)Nc1ccccc1	9	5.6%	-7	0.3	-11	-4
C[C@H](CO)N1C[C@H](C)[C@H](CN(C)S(=O)(=O)c2ccc3c(c2)OCCCO3)OCc2cnnn2CCCC1=O	-16	2.0%	-11	-0.1	-7.1	-6
Cc1ccccc1C1c2[nH]c3ccccc3c2CCN1CCCn1cccn1 (configuration not stated)	-5	-0.3%	2	-0.3	-0.9	-22
COc1cccc(Cn2cnc(-c3ccccc3OC)c2-c2ccco2)c1	-1	0.0%	-21	-0.3	nt	nt
CCCCC(=O)N(CCOC)c1nnc(-c2cccnc2)s1	1	0.6%	2	-0.5	-2.0	-2
O=C1C2C(c3ccccc3)C=CC(c3ccccc3)C2C(=O)N1CCO (configuration not stated)	-7	nt	-5	0.0	-1.3	-3

Profiles as entered above. Values in the order: CtBP-E1A blk | PINK1 expr mod | Six1-Eya2 inh | TRPML1 ag | D2 ag | D2 PAM
COc1ccccc1C(=O)N(CCC1CCCN1C)c1nc2ccccc2s1 (configuration not stated) across the screens: -9 | 0.5% | -10 | 0.5 | -0.2 | -16
O=C(NC1CCCC1)C1CCCN(S(=O)(=O)c2cccc3cccnc23)C1 (configuration not stated) across the screens: -16 | 4.6% | 7 | 0.5 | -7.5 | -3
C[C@H](CO)N1C[C@H](C)[C@H](CN(C)S(=O)(=O)c2ccc3c(c2)OCCCO3)OCc2cnnn2CCCC1=O across the screens: -16 | 2.0% | -11 | -0.1 | -7.1 | -6
O=C(COC(=O)c1cc(F)cc(F)c1)NCCCc1ccccc1 across the screens: 1 | -0.2% | 4 | nt | -4.1 | -8
COc1cccc(Cn2cnc(-c3ccccc3OC)c2-c2ccco2)c1 across the screens: -1 | 0.0% | -21 | -0.3 | nt | nt

The listing continues.
SMILES	CtBP-E1A blk	PINK1 expr mod	Six1-Eya2 inh	TRPML1 ag	D2 ag	D2 PAM
COc1cccc(CNc2nc(-c3cccnc3)nc3ccccc23)c1	-9	-0.9%	-24	-0.4	4.0	-14
CCc1ccc(C(O)(CC(C)C)C(CN2CCOCC2)c2ccccc2)cc1 (configuration not stated)	nt	?	-2	0.9	0.6	-7
CC1(C)C2CCC1(C)C(NCC(O)COc1ccc(C#N)cc1)C2 (configuration not stated)	3	-2.3%	-2	0.4	-0.5	-10
COC(=O)c1cn(CC(=O)N2CCCCC2C)c2ccccc12 (configuration not stated)	-4	1.5%	12	0.0	-1.6	-6
Cc1noc(C)c1S(=O)(=O)NC1CCCc2ccccc21 (configuration not stated)	4	0.2%	7	25	-3.2	-14
COc1cccc(-n2nc(C(N)=O)c(O)cc2=O)c1	0	-2.5%	9	0.2	-0.5	2
CCc1ccc(N2CCN(C(=O)c3ccc4c(c3)OCO4)CC2)cc1	2	0.2%	3	-1.1	0.4	-17
CCN(CC(=O)Nc1c(F)cccc1F)C(=O)CCc1nc2cc(S(=O)(=O)N(C)C)ccc2n1CC	5	-0.1%	1	0.9	-0.2	-4
CCn1c(C)nc2cc(C(=O)NNC(=O)c3ccc(C)cc3)ccc21	2	2.5%	-6	-0.4	-5.5	-9
COc1ccc(C(=O)COC(=O)c2cnc(C)cn2)c(OC)c1	3	0.8%	-1	-0.1	-1.1	2
CC(Nc1ncnc2ccccc12)c1ccccc1 (configuration not stated)	9	1.3%	-4	0.1	3.7	4
CCn1nc(NS(=O)(=O)c2ccccc2[N+](=O)[O-])c2cc3ccc(C)cc3nc21	?	0.1%	-21	-1.3	-4.2	-16
Cc1c(C(=O)OCc2ccccc2)nnn1-c1nonc1N	1	0.1%	10	0.5	2.4	-11
CCc1ccc(-c2cc(C)no2)cc1S(=O)(=O)NCCc1ccc(S(N)(=O)=O)cc1	-7	-0.5%	-4	-1.2	3.2	-20
O=C(Nc1cc(S(=O)(=O)N2CCCCC2)ccc1Oc1ccccc1)C1=COCCO1	-10	-0.6%	-16	1.5	6.8	-5
COc1cccc(NC(=O)c2nc(SC)ncc2Cl)c1	5	2.2%	-2	2.4	-2.3	-4
CC(C)CN1CCN(Cc2c[nH]c3ccccc23)CC1CCO (configuration not stated)	2	-0.3%	0	0.0	-0.5	-4
O=c1cnc(-c2ccc(Cl)cc2)cn1O	nt	-0.2%	-3	0.4	-10	-17
CCOC(=O)c1c(NC(=S)Nc2ccccc2)sc2c1CCN(CC)C2	-21	-1.2%	-17	8.8	-0.2	-23
CCCOc1c(Br)cc(C2C3=C(CCCC3=O)N(CC)C3=C2C(=O)CCC3)cc1OC	15	8.3%	2	-0.9	3.1	-7
Cc1cccc(-n2ncc3c(N4CCCC4)ncnc32)c1	10	?	-9	0.1	-2.4	-4
Cc1ccc(Cn2c(SCCN3CCOCC3)nc3c2c(=O)n(C)c(=O)n3C)cc1	14	nt	-5	0.0	-0.4	-31
Cc1cccc(C(=O)NCCCN2CCCC2=O)c1	4	-1.5%	0	0.2	-4.3	-9
CCCn1c(-c2ccc(C(=O)OC)cc2)nc2c1c(=O)[nH]c(=O)n2Cc1ccccc1	-11	8.3%	-4	0.7	3.3	-1
CCC(c1nnnn1CCc1ccccc1)N(Cc1ccco1)Cc1cc2c(C)ccc(C)c2[nH]c1=O (configuration not stated)	-3	-2.1%	-8	-0.1	-6.4	-39
C/C(=N\NC(=O)COc1cccc(Br)c1)c1ccc2c(c1)OCCO2	3	0.1%	-3	-0.4	-6.6	-2
O=C(O)CC(CC(=O)Nc1ccc2ccccc2n1)c1ccccc1 (configuration not stated)	-7	2.2%	0	-0.1	-2.6	-4
CCCOC(=O)c1ccc(OCC(O)CN2CCN(C(=O)c3ccccc3)CC2)cc1 (configuration not stated)	5	0.0%	8	1.1	-1.7	-17
CCCOc1c(OC)cccc1C1CC(=O)Nc2cc3c(cc21)OCO3 (configuration not stated)	-19	4.0%	-23	-0.3	-1.7	-6
O=C(Nc1ccccc1)Nc1sccc1-c1nc2ccccc2s1	13	4.9%	-1	1.5	2.4	-7
CCCc1nc(C)c(-c2ccc(OC)c(OC)c2)c(=O)[nH]1	15	3.5%	6	-0.5	-4.6	-7
COc1cccc(/C=C2/SC(=S)N(CC(=O)Nc3nnc(C)s3)C2=O)c1	-9	-0.1%	7	0.6	-2.5	-10
N/C(=N\C(=S)Nc1ccc2c(c1)OCO2)c1ccccc1	-12	3.5%	-17	-0.5	-3.7	-9
CCCc1cc2c(cc1NC(=O)c1ccc(C)cc1)OCO2	0	2.0%	-3	-1.6	-3.8	-14
COc1ccc(-c2cccc(C3CC=CC4C3C(=O)N(Cc3ccccc3)C4c3ccc(OC)c(Cl)c3)c2)cc1 (configuration not stated)	-4	22%	-2	0.0	0.4	-7
COc1ccc(N2CCN(C(c3cccs3)C(C)NC(=O)C(=O)N3CCCCC3)CC2)cc1 (configuration not stated)	-6	0.5%	-5	0.1	2.4	-4
NS(=O)(=O)c1ccc(NC(=O)COC(=O)c2ccc(Cl)cc2[N+](=O)[O-])cc1	nt	-1.7%	-8	-0.6	2.5	-1
CC(C)c1ccc(OCCCN2CCCC2)cc1	2	-0.4%	4	nt	-1.4	-19
O=C1Cc2ccccc2C(=O)N1Cc1cccc(Cl)c1	2	1.0%	4	-1.2	4.2	1
CCCCNC(=O)O[C@H]1C[C@@H]2CCN3C(=O)CCC[C@H]([C@H]1CC)[C@H]23	14	1.5%	10	0.3	1.0	1
CN(C)CCCNC(=O)C(=O)NCC1OCCN1S(=O)(=O)c1cccs1 (configuration not stated)	4	2.5%	0	-0.2	-1.1	-3
Cc1nn(C)c(C(=O)N2CCN(C(=O)c3ccco3)CC2)c1[N+](=O)[O-]	-4	-1.5%	4	-0.2	-1.3	-14
COc1cc(C(Nc2ccc(S(=O)(=O)N3CCC(C)CC3)cc2)C(=O)NCC2CCCO2)cc(OC)c1OC (configuration not stated)	10	1.8%	-7	-0.7	4.5	-8
Cc1ccc(C)c(NC(=O)Cc2nc(CNCC(C)C)cs2)c1	-1	-0.5%	6	0.6	-6.8	-23
